Source: PubChem (National Center for Advancing Translational Sciences (NCATS))
PMP22 txn: modulates PMP22 transcription in S16 Schwann cells. S16 Pmp22-F2sN Schwann cells (luciferase reporters placed in the Pmp22 gene), FLuc/NLuc coincidence luminescence, 24 h. AID 1508649. Potency, µM (doses to about 57.5 µM), inactives show top-dose activity change, negative = inhibition, actives largely listed as inhibitors. 43,000 compounds, 2% hits; active = clear falling dose curves in both reporters; inconclusive = both reporters move, but less clearly or upward; inactive = either reporter flat; the % is the NLuc reporter signal; also: % is scaled to controls: 0 for no effect and ±100 for the full control effect; some results filed as inactive show a strong effect at the top dose
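Transcriptional readout in edited S16(c9) cells: two luciferases reported from the Pmp22 locus, measured in turn after 24 h compound incubation.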
HTT promoter inh: inhibits huntingtin promoter activity; HEK293 HTT promoter firefly luciferase reporter (activity 0% = vehicle and -100% = no light), 24 h; Potency, µM (highest dose often 57.5 µM), without a hit: at the highest dose activity change, negative = inhibition, most hits filed as inhibitors; 48,000 compounds, 0.93% hits; AID 1508623; active = well fitted inhibition curve with a large enough effect; inconclusive = small, poorly fitted or top-dose-only effect; inactive = no such curve, though single readings can be large or run the other way; also: nearly all actives have a fitted effect of over 50% in size
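Firefly luciferase readout (Dual-Glo, 10 min RT) after 24 h, 37 °C compound exposure (final up to 57.5 uM) of HEK293 reporter cells cultured 24 h beforehand; PTC124 at 50 uM final as control inhibitor; activity scaled vehicle 0%, zero RLU -100%.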
* hit, by the source's call; ? = inconclusive; . = not tested or not shown; & = joins results of further samples; [ ] = remark or other dose. Potency is read from the fitted curve at half-maximal effect.

Compound	PMP22 txn	HTT promoter inh
COc1ccc(CCNC(=O)CN(c2ccccc2)S(=O)(=O)N(C)C)cc1OC	4%	-21%
Cc1ccc(C)c(NC(=O)c2ccc3nc(CCc4ccccc4)oc3c2)c1	-18%	9%
Cc1ccc(C)c(S(=O)(=O)n2nc(C)c(S(=O)(=O)N3CCCCCC3)c2C)c1	3%	-13%
COc1ccc(CNC(=O)C2CCCN(S(=O)(=O)c3cccc4nsnc34)C2)cc1 (centres undefined)	-30%	-29%
Cc1cccc(NC(=O)c2oc3ccc(S(=O)(=O)N(C)C4CCCCC4)cc3c2C)c1C	?	?
O=C(CN1C(=O)CSc2ccc(S(=O)(=O)N3CCCC3)cc21)NCc1ccc(F)cc1Cl	-11%	-9%
COC(=O)c1c(NC(=O)Cc2coc3cc(C)cc(C)c23)sc2c1CCC2	-9%	-17%
COc1ccc(OC)c(NC(=O)CN2C(=O)CC(C)Sc3ccccc32)c1 (centres undefined)	0%	-14%
COc1cccc2cc(-c3nc(Nc4cccc(C)c4C)sc3C)c(=O)oc12	?	?
COc1ccc(-c2nnc3n2N(C(C)=O)C(c2ccc(Cl)c(Cl)c2)=C(C(C)=O)S3)cc1	?	-9%
NS(=O)(=O)c1ccc(CCNc2nc3c(-c4cccc(F)c4)nnn3c3ccc(Cl)cc23)cc1	?	3%
O=C(NCCc1ccc(Cl)cc1)c1cccn1-c1nnc(N2CCCCC2)s1	-22%	?
Cn1c(=O)n(C)c2cc(CNCc3ccc(C(=O)O)cc3)ccc21	18%	-14%
COc1ccc(-c2c(C)nn3c(C(F)(F)F)cc(-c4ccccc4)nc23)cc1OC	-21%	-1%
O=S(=O)(Nc1nc2n(n1)C(c1ccc(F)cc1)C=C(c1ccccc1)N2)c1ccc(Cl)cc1 (centres undefined)	-42%	-18%
Cc1cccc(C)c1Nc1c(-c2ccc(O)cc2)nc2sccn12	?	-13%
Cn1c(=O)c2c(-c3ccccc3)n(CCCO)cc2n(C)c1=O	-20%	-7%
Cc1ccc(N(CC(=O)Nc2ccc(F)cc2F)S(=O)(=O)c2cccs2)cc1	7%	?
COC(=O)CC1Oc2ccccc2-n2cc(-c3ccc(F)cc3)nc21 (centres undefined)	-26%	-25%
O=C(NCCC1=CCCCC1)c1ccc2c(c1)N(Cc1ccc(Cl)cc1)C(=O)c1ccccc1S2=O (centres undefined)	?	-18%
CCOC(=O)c1cc(S(=O)(=O)N2CCN(c3ccccc3)CC2)[nH]n1	36%	-14%
Cc1ccc(Cl)cc1N1CCN(C(=O)c2c(C)oc3ncnc(N4CCOCC4)c23)CC1	13%	-13%
CCOc1ccc2c(c1)c(=O)c(C(=O)c1ccccc1)cn2Cc1ccccc1	?	-23%
Cc1ccc(NC(=O)c2sc3nc[nH]c(=O)c3c2C)cc1Cl	?	53%[activator]
CCN(CC)CCNC(=O)c1ccc(Cn2c(=O)c3cccn3c3cccnc32)cc1	-25%	5%
CCOc1ccc(C(=O)Nc2ccc(-n3nncc3-c3ccccc3)cc2)cc1OCC	-40%	?
O=C(CCS(=O)(=O)c1cccc2nsnc12)Nc1ccc(F)cc1	-26%	-11%
NC[C@H]1O[C@H](O[C@@H]2[C@@H](O)[C@@H](O[C@H]3O[C@H](CO)[C@@H](O)[C@H](N)[C@@H]3O)[C@H](N)C[C@@H]2N)[C@H](O)[C@@H](O)[C@H]1O	.	-4%
Cc1cccc(C2N=C(N)Nc3nc4ccccc4n32)c1 (centres undefined)	-16%	-20%
O=C(CSc1nc2ccsc2c(=O)n1Cc1ccccc1F)NCc1ccccc1	?	-6%

The results go on:
Compound	PMP22 txn	HTT promoter inh
Cc1cc(C)n(CC(=O)Nc2cc(F)ccc2F)c(=O)c1C#N	14%	-9%
Nc1nc(=O)n([C@H]2C[C@H](O)[C@@H](CO)O2)cc1F	.	-12%
O=C(Cn1ccn(-c2ccc(F)cc2)c(=O)c1=O)NCCc1ccccc1	-2%	-13%
CC1CCN(C(=O)c2c(NC(=O)c3ccccc3Cl)sc3c2CCC(C(C)(C)C)C3)CC1 (centres undefined)	?	-12%
Cn1c(=O)c(=O)n(C)c2cc(N3CCOCC3)c(NS(=O)(=O)c3ccc(Cl)cc3)cc21	-7%	-1%
CC1CCCN(c2csc3ccc(F)cc3c2=O)C1 (centres undefined)	-7%	61%[activator]
COc1ccccc1N1CCN(C(=O)c2cnc(N3CCCCC3)c3ccccc23)CC1	?	?
Cc1ccc(CNC(=O)C(=O)NCC(c2cccnc2)N2CCN(c3ccccc3F)CC2)cc1 (centres undefined)	?	14µM*
COC(=O)c1ccc2c(=O)n(CCCCCC(=O)N3CCN(c4cc(C)ccc4C)CC3)c(=O)[nH]c2c1	-34%	18%
COc1ccc(Cl)cc1N(C)C(=O)C(=O)Nc1ccc2nc3n(c(=O)c2c1)CCCCC3	-19%	-11%
Cc1cccc(N2CCN(C(=O)C3CCCN(S(=O)(=O)c4cccc5nsnc45)C3)CC2)c1C (centres undefined)	-23%	10%
COc1ccc(C(=O)Cn2c(=O)n3nc(CCn4nc(C)cc4C)nc3c3cc(OC)c(OC)cc32)cc1	1%	-8%
O=C(Cn1cc(C(=O)c2cccs2)c2ccccc21)Nc1ccc(Br)cc1	?	-6%
Cc1cccc(C)c1OCc1nc2c3cnn(-c4ccccc4Br)c3ncn2n1	6%	-7%
O=C(COc1ccccc1Cl)Nc1ccc2nc(SCC(=O)N3CCCC3)sc2c1	?	-25%
CCCCCn1c(=O)[nH]c2cc(C(=O)Nc3ccc(F)cc3)ccc2c1=O	-4%	8%
Cc1ccc2c(=O)cc(C(=O)Nc3ccc(S(=O)(=O)N4CCCCCC4)cc3)oc2c1	-7%	7%
COc1ccc(S(=O)(=O)NCCc2sc3nc(-c4ccc(C)cc4)nn3c2C)cc1F	-95%	?
CC1CCCCN1CCCNC(=O)Cn1ncc2c3ccccc3n(Cc3ccccc3)c2c1=O (centres undefined)	-27%	17%
Fc1ccc(-n2ncc3c(NC4CCCCCC4)ncnc32)cc1	-14%	14%
COc1ccc2[nH]cc(CCNC(C)=O)c2c1	.	0%&9%
COc1ccc2c(c1)c1c(c(=O)n(CCc3ccccc3)c(=O)n1Cc1cccc(C)c1)n2C	0%	-13%
COc1ccc(OC)c(C2CC(=O)Oc3c2c(=O)n(C)c2ccccc32)c1 (centres undefined)	-12%	-28%
NC(=O)c1cc(S(=O)(=O)NCC2CCC(C(=O)Nc3ccc(Cl)cc3)CC2)cs1 (centres undefined)	?	-34%
CCCc1nc2sc3c(N4CCC(C)CC4)ncnc3c2c2c1CCCC2	-5%	-5%
O=C(NCCc1ccccc1Cl)c1ccc2c(c1)nc1n2CCCCC1	17%	?
COc1ccc(S(=O)(=O)N2CCC(C(=O)Nc3ccccc3)CC2)cc1OC	1%	-16%
CCOC(=O)c1cnc2c(Cl)c(Cl)ccc2c1Nc1ccc(N(C)C)cc1	-22%	-2%
CCOc1ccc(CNC(=O)c2ccc3c(c2)nc2n3CCCCC2)cc1	-19%	46%[activator]
Cc1ccc(Cl)cc1N1CCN(C(=O)Cn2nc(C)n3c(cc4sccc43)c2=O)CC1	?	-10%

Other entries:
Compound	PMP22 txn	HTT promoter inh
NS(=O)(=O)c1ccc(CCNc2nccn(-c3cccc(C(F)(F)F)c3)c2=O)cc1	-2%	?
CC(=O)NCCNC(=O)CCCc1nnc2n(C)c(=O)c3sccc3n12	16%	2%
CCOC(=O)c1ccccc1NC(=O)Cn1c(=O)n(CCC(=O)NCc2ccccc2OC)c(=O)c2ccccc21	?	-19%
CCc1ccc(S(=O)(=O)Nc2ccc3c(c2)n(C)c(=O)c(=O)n3C)cc1	?	-28%
Cc1ccc(C(=O)Nc2nc3ccc(S(=O)(=O)N4CCCC4)cc3s2)cc1	-7%	8%
O=c1oc2ccccc2c(N2CCN(c3ccc(F)cc3)CC2)c1CN1CCCC1	-122%	-8%
CCOc1ccc(NC(=O)Cn2c(=O)oc3cc(S(=O)(=O)N4CCC(C)CC4)ccc32)cc1	?	10µM*
Cc1ccc2c(c1)N(C(=O)Nc1cccc3c1CCCC3)CCO2	-20%	-13%
O=C(CN1C(=O)C2(SCC(=O)N2c2cccc(Cl)c2)c2ccccc21)NCCc1ccccc1 (centres undefined)	?	?
S=P(N1CC1)(N1CC1)N1CC1	.	-5%
CC[C@H]1OC(=O)[C@H](C)[C@@H](O[C@H]2C[C@@](C)(OC)[C@@H](O)[C@H](C)O2)[C@H](C)[C@@H](O[C@@H]2O[C@H](C)C[C@H](N(C)C)[C@H]2O)[C@](C)(O)C[C@H](C)C(=NOCOCCOC)[C@H](C)[C@@H](O)[C@]1(C)O	.	-12%
COc1ccc(Cl)cc1S(=O)(=O)N1CCN(C(=O)c2cc(-c3ccc(Br)cc3)n[nH]2)CC1	?	?
COc1ccc(C)cc1NC(=O)c1cc2c(=O)n(Cc3cccnc3)ccc2nc1C	-51%	-2%
CCOc1ccc(-n2c(SCC(=O)N3CCC(C)CC3)nc3c([nH]c4ccccc43)c2=O)cc1	?	-7%
COc1ccc(NC(=O)Cn2c(=O)n(CCC(C)C)c(=O)c3cccnc32)cc1Cl	-6%	-20%
O=C(CSc1nc2c([nH]c3ccccc32)c(=O)n1-c1ccc(F)cc1)Nc1ccc2c(c1)OCCO2	?	-24%
Cc1ccc(-c2nnc(SCC(=O)NCc3ccccc3)o2)cc1	11%	-7%
COc1ccc2nc(NC(=O)c3nc(SC(C)C)ncc3Cl)sc2c1	1%	-2%
CCOc1ccccc1C(=O)N(Cc1ccco1)Cc1ccco1	2%	-8%
COc1cc(CNC(=O)c2ccc(NC(=O)N3CCCCc4ccccc43)cc2)cc(OC)c1OC	9%	-24%
CCOc1cc(CNC(=O)NC2COc3ccc(OC)cc3C2)cc(OCC)c1OCC (centres undefined)	-5%	-15%
Fc1ccccc1-n1ncc2c1ncn1nc(Cc3ccccc3)nc21	-10%	34%[activator]
Cc1c(C(=O)Nc2ccc(C(C)C)cc2)sc2nc3n(c(=O)c12)CCC3	?	?
COc1ccc(C2C(C(N)=O)=C(C)Nc3nc(SCc4ccccc4Cl)nn32)cc1OC (centres undefined)	-13%	-10%
COc1ccc2c(c1)c1c(c(=O)n(Cc3ccccc3)c(=O)n1CC(=O)Nc1ccccc1F)n2C	-7%	-11%
O=C(COc1ccc2ccccc2c1)NC1CC(=O)N(c2ccccc2)C1 (centres undefined)	32%	-23%
NC(=O)C1CCN(C(=O)c2ccc(NC(=O)c3nsc4ccccc34)cc2)CC1	?	-27%
CCOc1ccc(Cl)cc1C1CC(=O)Nc2cc(OC)c(OC)c(OC)c21 (centres undefined)	-1%	0%
Cc1ccc(CNC(=O)CCCn2c(=O)c3ccccc3n(Cc3ccccc3Cl)c2=O)cc1	?	-6%
COCCCNC(=O)c1ccc(Cn2c(SCc3ccc(F)cc3)nc3cccnc32)cc1	-10%	2%

Looked up above:
For HTT promoter inh, `Cc1cccc(C)c1OCc1nc2c3cnn(-c4ccccc4Br)c3ncn2n1` is entered as -7%
For HTT promoter inh, `CCc1ccc(S(=O)(=O)Nc2ccc3c(c2)n(C)c(=O)c(=O)n3C)cc1` is entered as -28%
For HTT promoter inh, `Cc1cccc(N2CCN(C(=O)C3CCCN(S(=O)(=O)c4cccc5nsnc45)C3)CC2)c1C` (centres undefined) is entered as 10%
For PMP22 txn, `CCOc1ccc(C(=O)Nc2ccc(-n3nncc3-c3ccccc3)cc2)cc1OCC` is entered as -40%
For HTT promoter inh, `CC[C@H]1OC(=O)[C@H](C)[C@@H](O[C@H]2C[C@@](C)(OC)[C@@H](O)[C@H](C)O2)[C@H](C)[C@@H](O[C@@H]2O[C@H](C)C[C@H](N(C)C)[C@H]2O)[C@](C)(O)C[C@H](C)C(=NOCOCCOC)[C@H](C)[C@@H](O)[C@]1(C)O` is entered as -12%
For HTT promoter inh, `CCOc1ccc(-n2c(SCC(=O)N3CCC(C)CC3)nc3c([nH]c4ccccc43)c2=O)cc1` is entered as -7%

Gathered by group, the compounds so far containing a CF3 group (2)
Compound	PMP22 txn	HTT promoter inh
COc1ccc(-c2c(C)nn3c(C(F)(F)F)cc(-c4ccccc4)nc23)cc1OC	-21%	-1%
NS(=O)(=O)c1ccc(CCNc2nccn(-c3cccc(C(F)(F)F)c3)c2=O)cc1	-2%	?

(continued)
Compound	PMP22 txn	HTT promoter inh
Cc1ccc(N2CCN(S(=O)(=O)c3cccc4ccccc34)CC2)cc1Cl	-27%	-1%
O=C(C=Cc1cccc(S(=O)(=O)Nc2ccccc2)c1)NO	.	144%[activator][116 µM]
CCN(C(=O)CCc1nc(-c2ccc(C)cc2)no1)c1cc(C)ccc1C	-2%	?
COc1ccc(S(=O)(=O)N(CC(=O)NCCSc2ccc(C)cc2)c2ccc(C)cc2)cc1	-23%	-19%
COc1ccccc1NC(=O)CSc1nc(-c2ccc(C)cc2)nc2c1Cc1c(CO)cnc(C)c1O2	-16%	-10%
COc1cc(NC(=O)CN2C(=O)CN(C)C(=O)c3ccccc32)cc(OC)c1OC	3%	8%
O=C(CN1C(=O)COc2ccc(S(=O)(=O)N3CCCCCC3)cc21)N1CCN(c2ccc(F)cc2)CC1	?	-14%
COc1ccc(NC(=O)CC(C)n2nc(C)cc2C)cc1Cl (centres undefined)	-2%	-4%
COc1ccc(CNC(=O)c2ccc3c(c2)N(Cc2ccccc2C)C(=O)c2ccccc2S3=O)cc1 (centres undefined)	-9%	-17%
